TRPML1 agonist: qHTS for Agonists of the Human Mucolipin Transient Receptor Potential 1 (TRPML1); Mucolipin-1 (Homo sapiens), Q9GZU1; TRPML1-expressing cells, Ca2+ dye fluorescence, FDSS; host cell line not named in the record; reference of the full effect not given here; activation, % (concentration not given with the values); 410,000 compounds, 0.12% hits; in the data active = activation above about 50%; inconclusive = about 30% to 50%; inactive = below about 30%; further: 0% is about no effect; the text of the record puts the active cut at 80%
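Tet-induced TRPML1-DL cells, 1,500 per well, cultured overnight, were loaded with a no-wash Ca2+ dye for 45–90 min. Calcium fluorescence was recorded on the FDSS for 110 s after compound addition, before the EC80 agonist (4 uM 54-4) was added.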
D2 potentiator: Beta-Arrestin HTS for Positive Allosteric Modulators of the Human D2 Dopamine Receptor: Potentiators. D(2) dopamine receptor (Homo sapiens), P14416. DiscoveRx D2 beta-arrestin cells, luminescence, 90 min; 100% = 57 uM dopamine signal. potentiation, % (no concentration beside the values). 360,000 compounds, 0.23% hits. AID 624464, 2012; active = potentiation of 50% or more; inconclusive = 30% to 50%; inactive = 30% or less;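 further: compound concentration not given in the record; tested on top of an EC20 dose of dopamine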
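PathHunter beta-arrestin assay in DiscoveRx D2 cells. Compounds were added with an EC20 of dopamine (50 nM final) for 90 min at 37 deg C. Luminescence was read 1 h after detection reagent, with 57 uM dopamine as the EC100 control.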
PINK1 expr mod: A Quantitative High throughput Screen to Identify Chemical Modulators of PINK1 Expression; PINK1 immunofluorescence, high-content cytometry, 24 h; Potency, µM (highest dose often 76.6 µM), for inactives: at the highest dose activation (PINK1 increase), most hits filed as activators; 410,000 compounds, 0.2% hits; AID 624263, 2012; active = well fitted activation curve with a large enough effect; inconclusive = small, poorly fitted or top-dose-only effect; inactive = flat fitted curve, though single readings scatter; cell line not stated here;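 further: potency means the concentration at half of the fitted maximal effect; % of control where 0% means no effect; nearly all actives have a fitted effect of over 65% in size; a mitochondrial uncoupler was the plate control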
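Stable cell line, 250 cells/well, 12 h attachment; compounds pinned at 5 concentrations, 24 h; CCCP control. Fixed with nuclear dye, primary antibodies 12 h at 10 degrees C, secondary plus cell stain; laser-scanning cytometer read.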
Six1-Eya2 inh: qHTS Assay for Inhibitors of the Six1/Eya2 Interaction | activity change, % (test concentration not listed) | AlphaScreen GST-Six1/His-Eya2 binding, biochemical; stronger effect = lower value; control for the full effect not named in the record | AID 651725, 2012 | Homeobox protein SIX1 (Homo sapiens) + Protein phosphatase EYA2 (Homo sapiens), … | 360,000 compounds, 0.56% hits; in the data active = activity change below about -65%; inconclusive = about -30% to -65%; inactive = above about -30%; further: on the % scale 0 is the no-effect control and ±100 the full control effect
Target sequence (O00167 whole entry, looked up): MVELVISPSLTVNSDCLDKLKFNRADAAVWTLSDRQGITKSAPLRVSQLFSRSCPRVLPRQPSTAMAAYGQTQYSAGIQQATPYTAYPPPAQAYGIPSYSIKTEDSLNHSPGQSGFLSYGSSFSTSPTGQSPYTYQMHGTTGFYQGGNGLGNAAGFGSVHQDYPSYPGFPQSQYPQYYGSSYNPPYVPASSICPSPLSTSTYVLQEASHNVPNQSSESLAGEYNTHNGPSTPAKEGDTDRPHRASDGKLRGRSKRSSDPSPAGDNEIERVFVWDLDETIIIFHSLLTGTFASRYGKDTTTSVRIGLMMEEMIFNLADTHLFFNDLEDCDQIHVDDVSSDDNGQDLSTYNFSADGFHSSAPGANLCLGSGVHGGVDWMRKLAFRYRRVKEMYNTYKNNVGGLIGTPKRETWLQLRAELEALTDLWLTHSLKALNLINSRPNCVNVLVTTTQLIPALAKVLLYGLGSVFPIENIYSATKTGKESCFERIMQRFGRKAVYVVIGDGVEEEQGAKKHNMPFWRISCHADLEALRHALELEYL
Target sequence (Q15475 whole entry, looked up): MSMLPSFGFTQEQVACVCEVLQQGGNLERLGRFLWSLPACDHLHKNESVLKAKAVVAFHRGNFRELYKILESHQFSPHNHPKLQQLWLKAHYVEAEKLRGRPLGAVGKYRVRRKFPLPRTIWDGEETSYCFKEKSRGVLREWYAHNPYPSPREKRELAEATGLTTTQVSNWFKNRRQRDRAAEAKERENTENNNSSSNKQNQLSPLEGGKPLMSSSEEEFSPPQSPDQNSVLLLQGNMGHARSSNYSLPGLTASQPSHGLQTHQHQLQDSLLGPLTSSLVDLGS
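GST-Six1 + His-Eya2 (5X stock: 250/500 nM); Tris pH 8.0, 300 mM NaCl, 0.05% BSA, 0.02% Tween 20; GSH donor/Ni acceptor beads; 1 h 37 °C dark; AlphaScreen readout.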
D2 ag: Beta-Arrestin HTS for Positive Allosteric Modulators of the Human D2 Dopamine Receptor: Agonists. 360,000 compounds, 0.084% hits. DiscoveRx PathHunter D2 beta-arrestin, luminescence, 90 min; 100% = 57 uM dopamine signal. activation, % (no concentration beside the values); in the data active = activation above about 40%; inconclusive = about 15% to 40%; inactive = below about 15%; further: compound concentration not given in the record; the text of the record calls up to 30% inactive
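Agonist mode: compounds alone added to overnight-plated D2 PathHunter cells for 90 min at 37 C, with 57 uM final dopamine (EC100) defining full response. Beta-arrestin recruitment detected by chemiluminescent reagent, read after 1 h at ambient temperature.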
TRPML1 inh: qHTS for Inhibitors of the Human Mucolipin Transient Receptor Potential 1 (TRPML1); activity change, negative = inhibition, % (no concentration beside the values); AID 624415, 2012; TRPML1-inducible cells, Ca2+ dye fluorescence, FDSS; stronger effect = lower value; inhibition of EC80 agonist-evoked calcium signal; 390,000 compounds, 0.02% hits; in the data active means activity change below about -50%; inconclusive means about -30% to -50%; inactive means above about -30%;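 further: stimulus is agonist 54-4 at its EC80 concentration; on the % scale 0 is the no-effect control and ±100 the full control effect; compound concentration not given in the record; the text of the record puts the active cut at -80%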
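TRPML1-DL cells, Tet-induced overnight (~16 h, 37 °C) at 1,500 cells/well, were loaded with Ca8 no-wash dye plus quencher for 45-90 min at room temperature. Compounds were pinned during FDSS kinetic reading; agonist 54-4 at EC80 (4 uM final) then added.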
The depositor's hits bear a star; ? = inconclusive; · = no result given; [ ] = dose if it differs, or a comment.

cpd	smiles	TRPML1 agonist	D2 potentiator	PINK1 expr mod	Six1-Eya2 inh	D2 ag	TRPML1 inh
1	Cc1cccc(-c2noc(CNC(=O)c3ccc4c(c3)OCO4)n2)c1	-0.8	-3	-0.7%	-4	1.7	0
2	O=c1[nH]c2ccc(NCc3ccc(-c4ccc(F)cc4)o3)cc2[nH]1	-0.7	·	6.6%	·	·	12
3	COc1ccc(-c2nc3c(-c4ccccc4)cnn3cc2C)cc1F	0.9	0	10%	7	-2.6	38
4	O=C(O)C(c1ccccc1)N1C(=O)/C(=C\c2ccc(-c3cccc(Cl)c3)o2)SC1=S (stereo not given)	3.8	-1	4.0%	-13	-1.9	4
5	c1ccc(CSc2nncn2-c2ccccn2)cc1	-0.4	-1	0.1%	4	0.2	0
6	O=C(CSc1nc(C2CC2)nc2c1cnn2-c1ccccc1)Nc1c[nH]c(=O)[nH]c1=O	0.2	2	-2.4%	-6	-5.4	-27
7	C[C@@H]1CN([C@H](C)CO)C(=O)CCCn2nncc2CO[C@H]1CN(C)S(=O)(=O)c1cccc(C#N)c1	0.5	1	-1.8%	9	-2.1	-7
8	COc1ccccc1C(=O)NC(=O)COC(=O)c1cccc(C)c1O	-0.2	-17	4.3%	2	5.5	5
9	CCCCn1c(=O)n(-c2ccc(Br)cc2F)c(=O)c2c3c(sc21)CN(C(C)=O)CC3	1.2	·	0.9%	·	·	52
10	Cc1ccc(S(=O)(=O)N2CC3(C)CN(S(=O)(=O)c4ccc(C)cc4)CC(C)(C2)C3O)cc1 (stereo not given)	-0.8	-7	-4.5%	-3	-2.1	7
11	O=S(=O)(Nc1ccccc1F)c1cccc(NC(=S)NCCN2CCOCC2)c1	0.4	-2	-0.2%	7	-3.1	-5
12	NC(=O)c1ccc(NC(=O)CCCNC(=O)c2ccc(Cl)cc2)cc1	2.6	-7	-2.9%	-1	-0.8	11

(next part)
cpd	smiles	TRPML1 agonist	D2 potentiator	PINK1 expr mod	Six1-Eya2 inh	D2 ag	TRPML1 inh
13	COc1ccc2cc(CN(C(=O)Nc3ccccc3OC)C3CCCC3)c(=O)[nH]c2c1	-0.6	12	0.5%	-4	-5.5	4
14	Cc1c(NC(=O)COc2c(F)c(F)c(F)c(F)c2F)c(=O)n(-c2ccccc2)n1C	-0.5	-6	0.7%	-7	-3.2	10
15	COc1cc(OC)c(NC(=O)CCCNC(=O)Cn2cnc3sc(C)c(C)c3c2=O)cc1Cl	-0.7	-1	1.0%	-26	-1.1	-1
16	FC(F)Oc1ccc(NC(=S)NCc2ccco2)cc1Cl	4.6	-11	4.9%	-3	4.5	25
17	O=c1[nH]c(C2CCCN(S(=O)(=O)c3ccccc3)C2)nc2c1nnn2Cc1ccccc1F (stereo not given)	1.1	-3	-2.0%	1	-2.6	-13
18	Cc1ccc(OCc2ccc(C(=O)Nc3ccc(C(N)=O)cc3)o2)c([N+](=O)[O-])c1	0.7	-7	-0.7%	-2	-5.0	7
19	CC1(C)C2CCC(C2)C1(C)N=C1OC(CCl)CS1 (stereo not given)	-0.4	1	9.8%	14	-0.9	2
20	CCNc1oc(COc2ccccc2F)nc1C#N	-0.5	-7	0.6%	2	-3.8	-3
21	CNC(=O)C1CCC(Cn2c(=O)c3sccc3n(CC(=O)Nc3ccc(C)c(F)c3)c2=O)CC1 (stereo not given)	0.5	·	0.8%	·	·	10
22	CCc1nc2ccc(C(=O)NCC3CCCCC3)cn2c1N(C)Cc1nccs1	-0.2	-2	0.4%	-1	-5.4	-5
23	Cc1ccc(CNC(=O)c2ccc(C)c(S(=O)(=O)N3CCCCC3)c2)cc1	2.8	-1	1.0%	-2	-2.7	9
24	CCN(CC(=O)NC(C)(C)C)Cc1cc(=O)n2c(-c3ccccc3)csc2n1	-0.6	-9	-0.9%	-1	-2.1	0

Rewritten with each value named: entries from further up.
15: COc1cc(OC)c(NC(=O)CCCNC(=O)Cn2cnc3sc(C)c(C)c3c2=O)cc1Cl
  TRPML1 agonist: -0.7 | D2 potentiator: -1 | PINK1 expr mod: 1.0% | Six1-Eya2 inh: -26 | D2 ag: -1.1 | TRPML1 inh: -1

21: CNC(=O)C1CCC(Cn2c(=O)c3sccc3n(CC(=O)Nc3ccc(C)c(F)c3)c2=O)CC1 (stereo not given)
  TRPML1 agonist: 0.5 | D2 potentiator: · | PINK1 expr mod: 0.8% | Six1-Eya2 inh: · | D2 ag: · | TRPML1 inh: 10

14: Cc1c(NC(=O)COc2c(F)c(F)c(F)c(F)c2F)c(=O)n(-c2ccccc2)n1C
  TRPML1 agonist: -0.5 | D2 potentiator: -6 | PINK1 expr mod: 0.7% | Six1-Eya2 inh: -7 | D2 ag: -3.2 | TRPML1 inh: 10

22: CCc1nc2ccc(C(=O)NCC3CCCCC3)cn2c1N(C)Cc1nccs1
  TRPML1 agonist: -0.2 | D2 potentiator: -2 | PINK1 expr mod: 0.4% | Six1-Eya2 inh: -1 | D2 ag: -5.4 | TRPML1 inh: -5

Further entries follow.
cpd	smiles	TRPML1 agonist	D2 potentiator	PINK1 expr mod	Six1-Eya2 inh	D2 ag	TRPML1 inh
25	COc1ccc(NC(=O)C(NC(=O)c2ccc(=O)[nH]c2)c2ccc(C)cc2)cc1 (stereo not given)	-0.1	-4	-0.9%	10	-3.2	1
26	O=C(c1cnn(C(=O)COc2ccc(Cl)cc2)c1)c1ccccc1O	0.0	-14	-0.9%	1	-2.2	-12
27	O=C(O)CC(C(=O)Nc1ccc(Cl)cc1Cl)C1CCCO1 (stereo not given)	4.1	-16	-0.3%	2	2.7	27
28	CCc1ccc(C(=O)C(C)OC(=O)CN2C(=O)NC3(CCCC3)C2=O)cc1 (stereo not given)	3.5	-8	9.7%	4	0.3	17
29	CC1=C(C(=O)c2ccccc2)C(c2cn(-c3ccccc3)nc2-c2ccc(Cl)cc2)NC(=S)N1 (stereo not given)	4.4	-13	6.9%[38.3 µM]	-9	-2.5	36
30	O=C(N=Nc1c(O)[nH]c2ccc(F)cc12)c1ccc(NS(=O)(=O)c2cccs2)cc1	3.3	0	0.7%	4	3.4	21
31	COc1ccc(OC)c(S(=O)(=O)N2CCN(c3ccccc3)CC2)c1	-0.2	-2	1.4%	-4	-2.2	-16
32	COc1ccc(S(=O)(=O)N2CCC3(CC2)OCCO3)cc1	-0.7	2	-0.7%	3	1.9	2
33	CC(=O)c1ccc(NC(=O)c2nc(-c3ccc(Cl)cc3)n3c2CCCCC3)cc1	-0.5	·	11%	·	·	-9
34	Cc1cc2nn(-c3ccccc3)nc2cc1NC(=O)COc1ccc(Cl)cc1	-0.4	·	1.1%	·	·	4
35	Cc1ccc2nc(-c3ccc(NC(=O)c4ccc(S(C)(=O)=O)cc4)cc3)sc2c1	-0.7	·	-0.1%	·	·	-2
36	CC(=O)NC(Cc1ccc(F)c(F)c1)C(=O)NC1CCN(C(=O)c2ccc(C)cc2)CC1 (stereo not given)	0.3	-8	-0.3%	-4	-1.8	19

The listing continues:
cpd	smiles	TRPML1 agonist	D2 potentiator	PINK1 expr mod	Six1-Eya2 inh	D2 ag	TRPML1 inh
37	COc1ccc(NC2=Nc3cccc4cccc2c34)cc1OC	-0.7	-19	-3.6%	-21	-4.5	8
38	CCOC(=O)c1c(O)c2c([nH]c1=O)CCCC2	-0.2	-15	0.7%[38.3 µM]	1	-2.7	3
39	CC(C)C(=O)N=C1SC2CS(=O)(=O)CC2N1Cc1ccccc1 (stereo not given)	-0.7	-5	4.4%	6	-0.3	-25
40	Cc1sc2nc(C3CC3)nc(SCC(=O)N3c4ccccc4CC3C)c2c1C (stereo not given)	0.2	-4	6.6%[38.3 µM]	6	0.1	-13
41	CCCCN(CCCC)c1nc(-c2ccccc2)nc2ccccc12	1.7	·	-0.4%	·	·	-18
42	CCOC(=O)C1CCCN(c2oc(-c3ccc(OC)cc3)nc2C#N)C1 (stereo not given)	2.5	-5	1.3%	-21	-14	-3
43	CCOc1ncccc1C(=O)OCC(=O)NCc1ccccc1	0.4	-7	-0.1%	8	-5.8	6
44	O=C(COc1ccc2ccccc2c1)NCCc1ccc2c(c1)OCCO2	0.6	-8	-1.8%	-10	-1.6	-10
45	Cc1cc(=O)oc2cc(OC(C(=O)O)c3ccccc3)ccc12 (stereo not given)	0.8	-4	-1.7%	8	-1.4	7
46	CCOc1ccc(N(CC)S(=O)(=O)N2CCCC(C(=O)NCCc3ccccc3OC)C2)cc1 (stereo not given)	0.2	·	-0.9%	·	·	11
47	COC(=O)c1ccccc1NC(=O)CSc1nnc(COc2cccc(OC)c2)n1C	2.0	-6	-3.5%	-1	4.3	13
48	Cc1occc1C(=O)N1CCCC(N2CCN(c3ccccc3F)CC2)C1 (stereo not given)	0.2	-37	0.4%	-2	1.0	12

Further structures:
cpd	smiles	TRPML1 agonist	D2 potentiator	PINK1 expr mod	Six1-Eya2 inh	D2 ag	TRPML1 inh
49	CCc1nnc(NS(=O)(=O)c2ccc(N/C=C\C(=O)c3cccc(OC)c3)cc2)s1	0.2	-16	-0.6%	-3	-2.1	-8
50	O=C(CSc1nc2ccccc2c(=O)[nH]1)c1ccccc1	0.5	-6	?	-2	-1.6	7
51	Cc1ccccc1-n1c(SCC(=O)c2cc(C)n(C)c2C)nnc1-c1ccncc1	1.2	-5	-2.2%	-7	1.4	-5
52	CCOc1ccc(CNS(=O)(=O)c2cc3c(cc2C)NC(=O)CO3)cc1OC	1.2	·	-1.1%	·	·	-14
53	COC(=O)C1=NNC2(c3ccc(Cl)cc3)C(=O)N(c3ccccc3)C(=O)C12 (stereo not given)	-0.1	11	-0.2%	13	-3.7	23
54	Cc1ccc(S(=O)(=O)NCCC(=O)OC(C)C(=O)NC2CC2)cc1 (stereo not given)	-0.1	-17	0.4%	-3	-3.4	-5
55	C[C@@H]1CN([C@@H](C)CO)C(=O)c2cc(Br)cnc2O[C@H]1CN(C)Cc1cccc(C(=O)O)c1	-0.3	-1	1.9%	-6	-2.8	0
